Assay outcomes (PubChem)
Mtb MenB inh = Mtb MenB enzyme inhibition | 100,000 compounds, 0.43% hits | MenB enzyme assay, absorbance read-out; some hits fall short of the stated cut | inhibition, %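 (about 12 µg/mL by stock and volumes)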;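 active = mean of two replicates above 30%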;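 note: 0% = no compound and 100% = wells with inactive enzyme; the first replicate is given; strong numbers were not always called active; inactives centre near -10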
Target sequence (P9WNP5 whole entry, looked up): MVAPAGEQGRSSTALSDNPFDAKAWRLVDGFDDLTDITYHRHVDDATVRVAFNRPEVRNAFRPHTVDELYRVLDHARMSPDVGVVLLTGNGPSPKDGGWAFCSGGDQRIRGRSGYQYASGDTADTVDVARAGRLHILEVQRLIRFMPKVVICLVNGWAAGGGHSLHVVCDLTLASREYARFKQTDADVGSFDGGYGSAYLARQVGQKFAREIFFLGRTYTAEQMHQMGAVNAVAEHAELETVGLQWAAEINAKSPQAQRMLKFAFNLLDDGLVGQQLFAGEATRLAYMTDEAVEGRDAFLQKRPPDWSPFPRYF
PV pol inh = poliovirus RNA polymerase inhibition; P03300; poliovirus polymerase elongation, fluorescence polarization; active compounds read low; % elongation, % (compound at 16.7 µg/mL); 150,000 compounds, 0.66% hits; in the data active = % elongation below about 90%; note: some results filed as inactive read as strong as hits
Target sequence (P03300 1749-2209 limits assumed): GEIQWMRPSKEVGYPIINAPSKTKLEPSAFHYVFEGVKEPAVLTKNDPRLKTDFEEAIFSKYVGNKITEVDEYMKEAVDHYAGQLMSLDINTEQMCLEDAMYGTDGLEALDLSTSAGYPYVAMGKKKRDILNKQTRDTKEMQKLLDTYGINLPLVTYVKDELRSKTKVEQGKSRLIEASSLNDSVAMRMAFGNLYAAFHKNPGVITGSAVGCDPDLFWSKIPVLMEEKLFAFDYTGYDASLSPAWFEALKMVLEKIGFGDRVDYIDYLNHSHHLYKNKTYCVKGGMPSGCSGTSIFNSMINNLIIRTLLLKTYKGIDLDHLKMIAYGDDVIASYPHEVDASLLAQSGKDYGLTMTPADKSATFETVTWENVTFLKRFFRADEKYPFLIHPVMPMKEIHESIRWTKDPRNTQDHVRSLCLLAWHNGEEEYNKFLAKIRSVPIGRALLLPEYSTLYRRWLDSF
MbtI inh = inhibitors of Mycobacterium tuberculosis siderophore enzyme MbtI | purified MbtI enzyme, fluorescence intensity read-out | P9WFX0 | inhibition, %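 (about 17 µg/mL by stock and volumes)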 | 100,000 compounds, 0.89% hits;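 active = above 50% in both replicates, above 80% if mildly self-fluorescent; inactive = the rest, strongly fluorescent compounds included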;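 note: 0% = mean of negative and 100% = mean of positive controls; one replicate is shown; some compounds called inactive have numbers as strong as hits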
PV pol inh intensity = recorded beside PV pol inh, whose call it bears; % elongation; measured here: total intensity read-out; formula for this scale not given here;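 total fluorescence in place of polarization; lower means less elongation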
* marks the source's active call; other numbers are inactive results; x = no result given; & = joins results of further samples.

SMILES	Mtb MenB inh	PV pol inh	PV pol inh intensity	MbtI inh
CC(C)(C)c1ccc(CSc2n[nH]c(=O)[nH]c2=O)cc1	24	100	100	2
CCN(C(=O)/C=C/c1cc(OC)c(OC)c(OC)c1)C1CCCCC1	-19	102	102	-27
CN1CCN(CCCNc2nc(-c3ccccc3)no2)CC1	6	100	102	-1
Cc1cc(C(=O)OCC(=O)N2CCc3ccccc3C2)c(C)o1	x	102	106	-9
Cc1nc2sc(C(=O)OCC(=O)NCc3ccco3)c(C)c2c(=O)[nH]1	-15	112	124	-3
CCOc1ccc(CNc2nc3ccccc3n2C)cc1OC	3	101	104	-1
O=C(CCCSC1=NC(c2ccco2)CC(C(F)(F)F)N1)Nc1ccc(Cl)c(Cl)c1 (configuration not stated)	-10	100	103	-8
Cn1c(N)c(C(=O)CN2CCc3ccccc3C2)c(=O)n(C)c1=O	2	97	121	-14
COc1ccc2c(c1)c(NC(C)=O)c(C(=O)O)n2C	13	102	102	85
COc1ccc(S(=O)(=O)N2Cc3ccccc3CC2C(=O)N2CCCCC2)cc1 (configuration not stated)	-19	103	107	-3
O=C(NCCc1ccc(Cl)cc1)C1CCC(=O)N1C1CCCCC1 (configuration not stated)	-31	102	102	-8
CC(NC(=O)c1ccccc1)c1nnc(SCc2nc3ccccc3c(=O)[nH]2)n1C (configuration not stated)	5	101	101	-10
CCn1c(NC(C)=O)nc2ccccc21	28	99	101	4
CCN(CC)c1ccc(-n2nc3cc(C)c(NC(C)=O)cc3n2)cc1	6	102	103	89
NC(=O)N/N=C/c1ccc([N+](=O)[O-])o1	-1&2	101&98	100&99	10&5
COc1ccccc1NC(=O)NN1CCCCC1	2	100	100	18
Cc1nnc(SCc2ccc(F)cc2)s1	-8	104	99	x
CN1C(=O)C=CC1=O	-10	x	x	-8
COC(=O)c1ccc(CSc2nc(-c3ccccc3)cs2)o1	-20	106	106	16
O=S1(=O)CCC(N2CCOCC2)C1 (configuration not stated)	3	104	106	x
COc1ccc(OC)c(S(=O)(=O)N(C)CC(=O)N2CCN(c3ccc(F)cc3)CC2)c1	-16	100	99	-16
O=C(CSc1ncnc2c1nnn2-c1ccc(F)cc1)NC1CCCCC1	-18	101	101	4
Cc1ccc(/C=C2\SC(=S)N(NC(=O)c3ccccc3F)C2=O)o1	-208	101	139	34
COc1cc(C)c(S(=O)(=O)N2CCCC(C)C2)cc1C (configuration not stated)	-1	101	98	11

An excerpt of these results, as comma-separated lines.
Molecule,Mtb MenB inh,PV pol inh,PV pol inh intensity,MbtI inh
CCN(CC)c1ccc(-n2nc3cc(C)c(NC(C)=O)cc3n2)cc1,6,102,103,89
COC(=O)c1ccc(CSc2nc(-c3ccccc3)cs2)o1,-20,106,106,16

Next structures:
SMILES	Mtb MenB inh	PV pol inh	PV pol inh intensity	MbtI inh
CCn1nnnc1SCC(=O)NC1CCCC1	8	99	102	8
Cc1ccc(OCC(=O)Nn2cnc3ccccc32)cc1	8	97	98	8
Cc1ccc(N2C(=O)NC(=O)/C(=C\c3ccccc3)C2=O)cc1	-20	100	104	13
CC(C)(O)[C@@H]1[C@H]2OC(=O)[C@@H]1[C@]1(O)C[C@H]3O[C@]34C(=O)O[C@H]2[C@]14C	-7	101	101	-22
CCC(c1nnc(SCC(=O)N2CC(=O)Nc3ccccc32)o1)N(C)C (configuration not stated)	0	99	103	5
O=C(c1ccc2c(c1)OCCCO2)c1ccc2ccccc2c1	-2	102	94	x
O=C(CSC1=NC(c2ccco2)CC(C(F)(F)F)N1)NCc1ccc(F)cc1 (configuration not stated)	-27	104	100	-8
CC1=C(C)CC(C(=O)Nc2ccc(-n3cnnn3)c(C)c2)C(C(=O)O)C1 (configuration not stated)	-1	99	104	10
CCc1cc2c(=O)c(-c3nncn3-c3ccccc3)coc2cc1OCC(=O)O	2	105	108	2
Cc1ccc(C(=O)OCc2ccc(C#N)cc2)s1	x	102	101	-1
O=C(COc1ncnc2sccc12)NCC1CCCO1 (configuration not stated)	14	102	107	20
O=C(c1ccc(Cl)cc1)N1CCCCC(Sc2nnnn2Cc2cccs2)C1=O (configuration not stated)	-13	106	100	18
CC(C)(C)OC(=O)N1CCC(c2nc(-c3ccc(Cl)s3)cs2)CC1	1	104	110	-8
CN1CCC(N(C)C(=O)c2cc3c(s2)CCCC3)CC1	x	103	98	-9
CCOC(=O)COc1ccc(=O)n(-c2ccccc2)n1	4	103	100	3
Cc1cc(C)n2nc(C(=O)OCC(=O)c3ccccc3)nc2n1	-12	106	114	-1
Cn1c(CNC(=O)OC(C)(C)C)nnc1SCc1ccccc1	-4	104	107	-7
O=S(=O)(Cc1ccccc1)NCc1ccccn1	9	98	102	-6
COc1cccc(NC(=O)c2cc(-c3cccc(OC)c3)n[nH]2)c1	-37	104	101	-4
O=C(CNCCc1ccc(Cl)cc1Cl)NCc1ccco1	-20	101	98	4
CC(C)N(C(=O)CSc1nnc(Cc2cccc3ccccc23)n1N)C(C)C	-6	99	96	19
c1ccc(-n2c(SCC3CCCO3)nnc2-c2cccs2)cc1 (configuration not stated)	-13	107	104	52
Cc1c(C(N)=O)sc2ncn(Cc3ccccc3)c(=O)c12	0	100	101	16
COc1ccc(NC(=O)Cc2cccc3ccccc23)cc1	-3	103	106	-10
OC1(C(F)(F)F)CC(c2ccc3c(c2)CCO3)=NN1 (configuration not stated)	5	103	103	0
N#Cc1ccc(NC(=O)CNCCN2CCOCC2)cc1	1	100	99	-1
O=C(O)CCC(=O)N1CCCCC1	24	98	99	5
O=C(NCc1ccco1)c1ccc2c(c1)N(Cc1ccccc1)C(=O)c1ccccc1S2=O (configuration not stated)	-21	101	99	0
Cc1nn(-c2ccccc2)c2sc(C(=O)OCC(=O)NC3CCCCCC3)cc12	-18	101	109	-2
CC1(C)OC(=O)C(C2C3CC4CC(C3)CC2C4)C(=O)O1 (configuration not stated)	-10	98	93	7
O=C1NC(=S)NC(=O)C1c1ccccc1	-15	99	100	49
O=C(c1ccco1)N1CCN(C2(c3ccccc3)C(=O)c3ccccc3C2=O)CC1	-3	101	101	-13
C/C(=C/c1ccccc1)C(=O)N1CC(C)OC(C)C1 (configuration not stated)	12	102	99	0
CC(=O)Nc1ccc(S(=O)(=O)Nc2ccc([N+](=O)[O-])cc2)cc1	-4	103	99	4
CCCCCCc1nnc(NC(=O)CC)s1	-9	100	98	32
COCCNC(=S)N1CCC(NC(=O)NC23CC4CC(CC(C4)C2)C3)CC1	3	101	103	-7

A second format for some results above.
Results follow in this order: Mtb MenB inh | PV pol inh | PV pol inh intensity | MbtI inh
> OC1(C(F)(F)F)CC(c2ccc3c(c2)CCO3)=NN1 (configuration not stated)
    5 | 103 | 103 | 0
> N#Cc1ccc(NC(=O)CNCCN2CCOCC2)cc1
    1 | 100 | 99 | -1

Other records:
SMILES	Mtb MenB inh	PV pol inh	PV pol inh intensity	MbtI inh
CCN(CC)c1nc(-c2ccccc2F)nc2ccccc12	-26	104	105	-12
N#Cc1nc(Cc2ccccc2)oc1NCCc1ccccc1	-11	99	101	-8
CCOc1ccc2nc(SCc3ccc4c(c3)OCO4)sc2c1	-5	106	105	x
CNc1oc(-c2ccc(OC)cc2)nc1C#N	-18	102	102	-337
C=COCCn1c(-c2nonc2N)nc2ccccc21	-16	103	108	-11
CCC(=O)N1CCc2cc(Br)cc(S(=O)(=O)NCCN3CCN(c4ccccc4F)CC3)c21	-10	99	102	-7
CCC(=O)N(C)c1nnc(-c2cccc(C)c2)s1	-38	101	102	20
O=c1cccc2n1CC1CC2CN(Cc2nnc(-c3ccccc3F)o2)C1 (configuration not stated)	-4	99	104	-11
O=C1NC(=NC2CCCC2)S/C1=C\c1ccc(Cl)cc1	-14	93	99	58
CC1(C)Cc2ccccc2-c2nnc(-c3ccccc3)n21	-2	102	104	-5
Oc1ccc2ccccc2c1C=NCc1cccnc1	-148	94	104	-2
O=C(O)Cc1ccc2c(c1)OCCCO2	-44	101	103	55

Complete entries as entered above:
CCC(=O)N1CCc2cc(Br)cc(S(=O)(=O)NCCN3CCN(c4ccccc4F)CC3)c21 is entered as Mtb MenB inh: -10; PV pol inh: 99; PV pol inh intensity: 102; MbtI inh: -7
CCN(CC)c1nc(-c2ccccc2F)nc2ccccc12 is entered as Mtb MenB inh: -26; PV pol inh: 104; PV pol inh intensity: 105; MbtI inh: -12
CNc1oc(-c2ccc(OC)cc2)nc1C#N is entered as Mtb MenB inh: -18; PV pol inh: 102; PV pol inh intensity: 102; MbtI inh: -337

Additional structures.
SMILES	Mtb MenB inh	PV pol inh	PV pol inh intensity	MbtI inh
O=C1C=C(NCc2ccccc2)CCC1	x	102	109	6
CC(O)CN=Cc1cc2ccccc2nc1Cl (configuration not stated)	0	100	103	3
CSc1nnc(-c2ccccc2)n1/N=C/c1cn[nH]c1-c1ccccc1	-34	104	99	-8
CCc1nnc(NC(=O)c2sc(-c3cccc(Cl)c3)nc2C)s1	-17	104	103	50
COc1cc(-c2nnc(SCC(=O)NC3CCCC(C)C3C)o2)cc(OC)c1OC (configuration not stated)	10	103	99	15
C/C(=N\NC(=O)Cc1cc(=O)[nH][nH]1)c1cccs1	-58	105	101	15
O=C(O)CCS(=O)(=O)Cc1ccccc1Cl	5	101	105	1
CC(NC(C(=O)O)c1ccccc1)c1ccccc1 (configuration not stated)	0	105	107	x
Cc1ccc(-n2nc(C(=O)NC(C)CCc3ccccc3)c3c4ccccc4n(C)c3c2=O)cc1 (configuration not stated)	-12	105	96	13
CC(=O)Nc1nonc1-c1nc2ccccc2n1CCCC#N	8	103	102	4
CCCCc1ccc(NC(=O)C=C(C)C)cc1	-18	100	101	-2
C1=C(c2ccccc2)NN=C(/N=C/c2ccco2)S1	-12	117	121	x
O=C1CCC(=O)N1C(c1ccccc1)c1ccccc1	-11	x	x	-3
COC(=O)c1ccc(C=Nc2ccc3oc(-c4ccc(N(C)C)cc4)nc3c2)cc1	-10	104	101	-165
Cc1cc(C)c2c(c1)-c1cc(C)nn1C(c1ccc(N3CCOCC3)cc1)N2 (configuration not stated)	7	101	103	115
CC1(C)CC(=O)C=C(NCC(O)c2ccccc2)C1 (configuration not stated)	-4	104	102	27
Cc1noc(C)c1CSc1nnc(-c2ccc(Br)cc2)n1C1CCCCC1	-42	109	102	-15
c1ccc(C(c2ccccc2)N2CCN(Cc3nnnn3Cc3ccc4c(c3)OCO4)CC2)cc1	5	100	99	-2
CC(=O)Nc1c(C#N)c(C)n(-c2ccccc2)c1C(=O)c1ccccc1	27	101	98	13
O=c1c2ccccc2nc2oc3ccccc3n12	-9	102	103	64
O=C(NCCN1C(=O)S/C(=C\c2ccccc2F)C1=O)C1Cc2ccccc2CN1C(=O)c1ccco1 (configuration not stated)	-31	115	117	7
Cc1ccc(CCNC(=O)Cc2noc3ccccc23)cc1	-15	104	105	-7
CCOc1cc(C2C3=C(CCCC3=O)OC3=C2C(=O)CCC3)ccc1OCC(=O)O	-2	104	103	-2
C=CCn1c(SC(C)C)nc2sc3c(c2c1=O)CCCC3	-8	102	101	-10
O=C(Cc1ccccc1)OC1OCCOC1OC(=O)Cc1ccccc1 (configuration not stated)	0	101	107	-3
Cc1ccc(OCC(=O)NCc2ccc(C(=O)O)cc2)cc1C	5	100	102	-6
Cc1ccc(N2COc3ccc(Cl)cc3C2)cc1	-1	107	104	x
CN(C)C(=S)NC(=O)c1ccccc1	-1	99	106	7
CCn1c(SC)nnc1C1CCCN1C(=O)N(c1ccccc1)c1ccccc1 (configuration not stated)	-51	105	102	-6
Cc1cnc(NC(=O)CSc2ccccc2)s1	x	102	104	0
Cc1ccc(-n2c(=O)c3c(c4cc(C)ccc4n3C)n(C)c2=O)cc1	6	100	102	132
COc1ccc(C)cc1CCNCc1ccc(NC(C)=O)cc1	16	96	95	0
CCn1cc(S(=O)(=O)N2CCC(C(=O)O)CC2)cn1	-24	103	103	0
CC1=Nc2cc(C(=O)NCc3ccco3)ccc2Sc2ccc(C)cc21	4	100	103	8
Cc1ccc(S(=O)(=O)N2C(=O)CCC2C(=O)N2CCCC2)cc1 (configuration not stated)	-9	98	102	-7
Clc1cccc(-c2nc(N3CCC4(CC3)OCCO4)nc3c2COc2ccccc2-3)c1	-16	101	101	48
Cc1noc(CCn2c(=O)[nH]c3ccccc3c2=O)n1	4	101	106	15
COc1cc(OC)cc(C(C)(C)OC(=O)NN)c1	-13	104	104	-10
Cc1sc2ncn(CC(=O)NCCc3ccc(S(N)(=O)=O)cc3)c(=O)c2c1C	0	108	114	4
CC12CCCC(C(=O)NN)(CCC1)C2	-24	104	107	-12
CN(C)C(=O)C(OC(=O)c1cc(=O)[nH]c2ccccc12)c1ccccc1 (configuration not stated)	-6	103	104	-19
CCCCSC1=NC(=O)CC(=O)N1	-93	100	99	4
Cc1noc(C)c1COC(=O)C1COc2ccccc2O1 (configuration not stated)	-6	106	110	-12
O=S(=O)(c1ccccc1)N(CCOc1ccccc1)Cc1ccco1	-4	101	108	-3
O=C(CN1C(=O)CC(c2ccccc2)S(=O)(=O)c2ccccc21)NC1CCCCC1 (configuration not stated)	-1	100	102	1
O=C(O)C1CC(=O)N(c2cccc(Cl)c2)C1 (configuration not stated)	-18	102	101	2
